Source: PubChem BioAssay
D2 potentiator: positive allosteric modulators of human D2 dopamine receptor. DiscoveRx D2 beta-arrestin cells, luminescence, 90 min; 100% = 57 uM dopamine signal. potentiation, % (no concentration beside the values). 360,000 compounds, 0.23% hits. P14416; active = potentiation of 50% or more; inconclusive = 30% to 50%; inactive = 30% or less;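 further: compound concentration not given in the record; tested on top of an EC20 dose of dopamine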
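D2 cells co-treated with compound plus 50 nM dopamine (EC20) for 90 min at 37 deg C to detect potentiation. Beta-arrestin recruitment was read as enzyme-fragment luminescence after 1 h at ambient temperature. Full response was set by 57 uM dopamine.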
D2 ag: activates the human D2 dopamine receptor; activation, % (test concentration not listed); P14416; 360,000 compounds, 0.084% hits; AID 624465; DiscoveRx PathHunter D2 beta-arrestin, luminescence, 90 min; 100% = 57 uM dopamine signal; in the data active = activation above about 40%; inconclusive = about 15% to 40%; inactive = below about 15%; further: compound concentration not given in the record; the text of the record calls up to 30% inactive
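DiscoveRx PathHunter D2 beta-arrestin cells (2,100/well) attached overnight, then compound-stimulated 90 min at 37 C in HBSS/10 mM HEPES/0.1% Tween-20 buffer; beta-galactosidase complementation read by luminescence after 1 h at ambient temperature. Dopamine 57 uM final (EC100) as control.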
gsp ag: agonists of gsp mutant (McCune-Albright syndrome) | 340,000 compounds, 0.13% hits | gsp mutant cells, cAMP HTRF, 30 min; control for the full effect not named in the record | Potency, µM (top dose mostly 76.9 µM), inactives show at the top dose activation (cAMP increase), usual class: activators; active = well fitted activation curve with a large enough effect; inconclusive = small, poorly fitted or top-dose-only effect, or another doubt; inactive = no such curve, though single readings can be large or run the other way; cell line not stated here;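 further: phosphodiesterase inhibitor Ro 20-1724 added with compounds to block cAMP breakdown; potency means the concentration at half of the fitted maximal effect; nearly all actives have a fitted effect of over 60% in size; about a fifth of the inactives were tested at one dose only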
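Cells in DMEM/10% FBS with G418 were pretreated with compounds in DMSO plus […] (300 uM stock) for 30 min at 37C. cAMP was measured by HTRF (cAMP-d2 plus anti-cAMP antibody-K) after 30 min at room temperature.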
Six1-Eya2 inh: inhibitors of human Six1/Eya2 interaction. Q15475+O00167. 360,000 compounds, 0.56% hits. AID 651725. AlphaScreen GST-Six1/His-Eya2 binding, biochemical; active compounds read low; control for the full effect not named in the record. activity change, % (concentration not given with the values); in the data active = activity change below about -65%; inconclusive = about -30% to -65%; inactive = above about -30%; further: on the % scale 0 is the no-effect control and ±100 the full control effect
Target sequence (O00167 whole entry, looked up): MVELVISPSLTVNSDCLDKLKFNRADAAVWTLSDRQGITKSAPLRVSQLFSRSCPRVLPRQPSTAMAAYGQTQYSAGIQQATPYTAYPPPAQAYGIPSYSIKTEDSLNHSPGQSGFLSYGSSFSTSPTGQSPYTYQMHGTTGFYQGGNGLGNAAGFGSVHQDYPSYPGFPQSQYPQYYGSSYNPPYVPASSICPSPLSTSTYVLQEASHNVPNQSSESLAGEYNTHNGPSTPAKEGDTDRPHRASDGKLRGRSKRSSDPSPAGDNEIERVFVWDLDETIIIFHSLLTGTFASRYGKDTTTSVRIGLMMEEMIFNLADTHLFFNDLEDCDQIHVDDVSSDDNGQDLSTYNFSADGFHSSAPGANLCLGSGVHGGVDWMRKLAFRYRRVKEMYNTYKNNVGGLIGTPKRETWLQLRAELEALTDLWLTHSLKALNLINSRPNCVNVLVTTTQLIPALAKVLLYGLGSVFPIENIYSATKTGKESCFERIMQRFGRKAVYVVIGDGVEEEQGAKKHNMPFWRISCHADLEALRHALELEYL
Target sequence (Q15475 whole entry, looked up): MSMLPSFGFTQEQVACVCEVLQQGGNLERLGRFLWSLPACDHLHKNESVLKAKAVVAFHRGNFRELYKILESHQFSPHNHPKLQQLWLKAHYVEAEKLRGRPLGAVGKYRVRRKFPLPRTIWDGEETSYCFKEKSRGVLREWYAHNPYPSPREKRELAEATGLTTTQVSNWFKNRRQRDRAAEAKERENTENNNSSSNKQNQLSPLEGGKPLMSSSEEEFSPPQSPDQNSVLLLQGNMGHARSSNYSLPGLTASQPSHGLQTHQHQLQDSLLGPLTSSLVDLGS
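Six1/Eya2 binding was read as AlphaScreen signal after compounds were pinned into GST-Six1 plus His-tagged Eya2 (5X stock 250/500 nM) in pH 8.0 Tris/NaCl/TCEP buffer, beads added, then incubated 1 h, 37 C, dark.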
gsp antag: antagonists of gsp mutant (McCune-Albright syndrome); gsp-mutant cells, cAMP HTRF, 30 min; control for the full effect not named in the record; Potency, µM (doses to about 76.9 µM), inactives show at the top dose activity change, negative = inhibition, hits mostly inhibitors; 340,000 compounds, 0.4% hits; active = falling curve of any shape with a large fitted effect; inconclusive = falling curve, mostly with a smaller effect; inactive = flat or rising curve; cell line not stated here;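 further: intracellular cAMP measured with PDE inhibitor Ro 20-1724 present during compound exposure; potency means the concentration at half of the fitted maximal effect; on the % scale 0 is the no-effect control and ±100 the full control effect; nearly all actives have a fitted effect of over 65% in size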
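G418-selected cells were plated in DMEM/10% FBS for 16-24 h at 37C, then treated with compounds plus the PDE inhibitor […] (300 uM solution added) for 30 min at 37C. Intracellular cAMP was measured by HTRF after 30 min lysis at room temperature.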
CtBP-E1A inh: CtBP/E1A binding inhibition; AlphaScreen GST-E1A/His-CtBP binding, 1536-well; active compounds read low; control for the full effect not named in the record; activity change, % (no concentration beside the values); 340,000 compounds, 0.49% hits; in the data active means activity change below about -65%; inconclusive means about -30% to -65%; inactive means above about -30%; further: on the % scale 0 is the no-effect control and ±100 the full control effect
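Homogeneous bead-based format: GST-tagged E1A captured on glutathione donor beads, His-tagged CtBP on nickel acceptor beads; compounds precede bead addition by 2 h at 37 °C.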
* = called active by the depositor; ? = inconclusive; . = not tested or not shown; [ ] = remark or other dose. This is a random part of the collection; 1.4% or so of the library scored in one or more.

The opening 2 compounds as a preview:
SMILES	D2 potentiator	D2 ag	gsp ag	Six1-Eya2 inh	gsp antag	CtBP-E1A inh
CC1CCC/C(=N/Nc2nc3ccccc3s2)C1 (stereo not given)	-8	-12	?	-9	0%	1
O=C(COC(=O)CC1CC2CCC1C2)Nc1cccc(S(=O)(=O)NC2=NCCCCC2)c1 (stereo not given)	-10	0.6	6%[15.4 µM]	-20	0%	-2

The listing, from the first entry:
SMILES	D2 potentiator	D2 ag	gsp ag	Six1-Eya2 inh	gsp antag	CtBP-E1A inh
CC1CCC/C(=N/Nc2nc3ccccc3s2)C1 (stereo not given)	-8	-12	?	-9	0%	1
O=C(COC(=O)CC1CC2CCC1C2)Nc1cccc(S(=O)(=O)NC2=NCCCCC2)c1 (stereo not given)	-10	0.6	6%[15.4 µM]	-20	0%	-2
CC[C@@H](C)[C@H](NS(=O)(=O)c1ccc(C)cc1)C(=O)N1CCC(C(=O)NCC(=O)O)CC1	1	-2.3	-13%	9	1%	5
CC[C@]12C(=O)N(C)C[C@H]([C@@H]3C(=O)N(Cc4ccccc4)C(=O)[C@@H]31)N2C(=O)c1ccc(F)cc1	1	-1.8	-25%	1	2%	3
COC(CSc1nc(N)c2c3c(sc2n1)CN(C)CC3)OC	-16	6.6	9%	-16	-4%	.
O=C(NC1CCCC1)C1CCN(C(=O)NCc2ccccc2)CC1	-3	-3.3	-24%	2	4%	-4
COCc1nnc(NC(=O)c2ccc(NC(=O)C(C)C)cc2)s1	-9	-0.1	19%	0	-5%	6
Cc1cc(C(=O)O)c(S(C)(=O)=O)s1	-6	2.0	11%	4	9%	6
COc1ccc2nc(NC(=O)CCc3nc(-c4ccccc4F)no3)sc2c1	0	-0.3	4%	7	-17%	6
COc1cc(CNCCCN2CCOCC2)ccc1OCC(=O)NC(C)(C)C	-3	-2.1	9%[15.4 µM]	1	1%	-13
CC(=O)N1CCC(=NNc2ccnc3cc(Cl)ccc23)CC1	4	15	-27%	-4	-12%	0
CCNc1nc(NCC)n2c(SCC(=O)Nc3ccc(OC)c(OC)c3)nnc2n1	-5	-4.2	-7%[15.4 µM]	-10	18%	-1
Cc1ccc2nsnc2c1S(=O)(=O)NC1CC1	1	0.0	6%	3	-2%	6
Cc1ccc(S(=O)(=O)N(C)C)cc1NC(=O)c1ccccc1SCC(=O)N1CCCC1	-3	-0.8	-25%	-1	-1%	.
COC(=O)C(CCSC)NC(=O)Cn1ncc2c(=O)oc3ccc(C)cc3c21 (stereo not given)	-3	-0.8	22%	1	-3%	-4
CO[C@@H]1[C@@H](OC(N)=O)[C@@H](O)C(Oc2ccc3c(O)c(NC(=O)c4ccc(O)c(CC=C(C)C)c4)c(=O)oc3c2C)OC1(C)C (stereo not given in full)	1	-1.3	.	-3	-23%	-15
COc1ccc(-c2c(C#N)c(N)nc3sc(C(=O)c4ccccc4)c(N)c23)cc1	-18	-3.4	?	1	6%	-3
O=C(CSc1nnc(-c2ccccn2)n1-c1ccccc1)Nc1ccc2c(c1)OCO2	-3	-1.4	-10%	-1	0%	-4
CC(=O)NC(c1ccccc1)c1nc(-c2cncnc2)cs1 (stereo not given)	-7	-3.3	.	3	.	3
CC(=O)c1c(C)[nH]c(C(=O)N2CCN(c3cc(Cl)ccc3C)CC2)c1C	-13	0.0	-6%	2	19%	-6
Cc1cccc(C)c1NC(=O)C1(C)CCC(=O)N1CCc1c[nH]c2ccccc12 (stereo not given)	2	5.5	.	1	.	4
CN(C)c1ccc(C(=O)OCC(=O)N2CCCCCC2)cc1	3	-7.2	-20%	8	1%	2
CCC(C(=O)OC)n1cnc2c(oc3ccccc32)c1=O (stereo not given)	-7	-0.1	-2%	4	-5%	.
CCOC(=O)C1=CCN(S(=O)(=O)c2ccc(F)cc2)C1c1cccc(F)c1 (stereo not given)	-1	1.1	.	9	.	-22
O=C(COC(=O)c1n[nH]c2ccccc12)Nc1ccc(S(=O)(=O)N2CCCC2)cc1	19	4.0	-9%	-1	?	-4
CCOc1ccc(NC(=O)C2CC(=O)N=C(N)S2)cc1 (stereo not given)	-19	-6.3	1%	-3	30%[activator]	3
COc1ccc(C(=O)N2CCN(c3ccccc3)CC2)cc1S(=O)(=O)N1CCOCC1	-4	-14	-5%[15.4 µM]	14	9%	22
O=C1CCc2cc(S(=O)(=O)Nc3ccccc3Cl)ccc2N1	-4	8.3	?	1	5%	.
CC(C)C(CC(=O)N1CCCCC1)C1CCOC(C)(C)C1 (stereo not given)	-5	0.1	27%	4	-3%	6
CC(C)(C)n1cnc(C(N)=O)c1N	2	-1.6	2%[15.4 µM]	18	11%	0
O=C(CNC(=O)c1ccccc1)NCC(=O)OCC(=O)c1ccccc1Cl	-14	-7.5	?	6	?	4
O=C1/C(=C\c2ccc3c(c2)OCO3)CCC/C1=C/c1ccc2c(c1)OCO2	1	-2.4	-11%	-2	-2%	6
COc1ccc(CCN=C(C)c2cc(C)c(C)cc2O)cc1OC	3	-1.9	?	3	5%	3
CC1CCN(C(=O)c2[nH]cnc2C(=O)N2CCN(c3ccccc3)CC2)CC1	-2	-2.9	20%	-1	15%	6
CCn1c(CNc2ccc(OC)cc2)nnc1SCC(=O)Nc1ccc(F)cc1	-2	-2.1	-17%	-18	-8%	-12
O=c1[nH]c(Cc2ccccn2)nc2scc(-c3ccccc3Cl)c12	-6	2.6	-17%	-6	-11%	-3
COc1ccccc1NC(=O)N1CCCC(C(=O)Nc2cccc(C)c2C)C1 (stereo not given)	0	-0.7	-19%	6	12%	9
Cc1cc(C)cc(NS(=O)(=O)c2ccc(NC(=O)C3CCCCC3C(=O)O)cc2)c1 (stereo not given)	-5	-5.3	1%[15.4 µM]	-16	10%	0
On1c(-c2ccc(Cl)cc2)nc2ccccc21	-8	0.2	17%[15.4 µM]	5	-10%	3
O=C(CSc1nc2ccccc2c(=O)[nH]1)Nc1ccc(S(=O)(=O)N2CCCC2)cc1	-19	-2.6	-6%	-9	1%	-15
O=C(NCc1cccs1)C1CCN(S(=O)(=O)c2cccc3nsnc23)CC1	1	-1.9	11%	3	-2%	1
CC(C)N(Cc1ccccc1)C(=O)COC(=O)c1cnccn1	-5	-6.6	?	0	2%	7
COC(=O)CNc1cc(S(=O)(=O)N2CCCCC2)ccc1Oc1ccc(C(=O)OC)cc1	6	2.8	-4%	-7	-12%	-14
COc1ccccc1C(CC(=O)c1ccccc1)CC(=O)c1ccccc1	9	5.5	-18%	-10	-13%	31
COc1ccc(C(=O)c2ccccc2)cc1CN1CCOCC1	-10	-3.0	-31%[inhibitor]	10	.	14
O=C1NCC(O)=C1C=NCCCO	-3	0.9	-37%[inhibitor]	6	9%	14
c1csc(CNCCN2CCOCC2)c1	-3	-2.9	?	0	5%	0
COc1cc(C(=O)NCC(=O)N/N=C/c2c(C)[nH]c3ccccc23)cc(OC)c1OC	-17	-2.0	-53%[inhibitor]	-7	4%	3
CCOC(=O)c1cc(CC)sc1NC(=O)c1ccc(N2CCOCC2)c([N+](=O)[O-])c1	0	-2.4	-18%	0	-3%	6
Cc1nnc(SCc2nc3ccccc3[nH]2)s1	-12	-2.9	-24%	-4	7%	-1
COc1cc(C=NCc2ccccc2)ccc1O	-8	-3.2	-52%[inhibitor]	-17	.	1
CCOc1ccc(NS(=O)(=O)c2ccc(C(=O)N3CCN(C(C)=O)CC3)cc2)cc1	-10	2.5	-6%	3	-23%	2
CC(C)n1c(/N=C/c2ccccc2O)nc2ccccc21	-20	-1.8	-12%[15.4 µM]	15	3%	-25
N#Cc1nc(-c2ccco2)oc1NCc1ccco1	-2	-1.0	0%	-3	6%	-4
CN(C(=O)C1CCC1C(=O)O)c1nc(-c2ccc(Cl)s2)cs1 (stereo not given)	-5	-3.3	0%[15.4 µM]	-20	0%	-7
CCCNC(=O)c1cc(-c2ccc3c(c2)OCO3)on1	-13	2.2	?	-11	6%	-27
COC(=O)Cc1ccc2oc(-c3cccnc3)nc2c1	3	-4.6	-1%[15.4 µM]	4	13%	-12
COc1ccc2[nH]c(=O)c(C(c3nnnn3C3CCCC3)N(C)C3CCCCC3)cc2c1 (stereo not given)	-2	0.1	-4%	1	-4%	-15
CS(=O)(=O)N(CC(=O)N1CCC(C(N)=O)CC1)c1ccc(Oc2ccccc2)cc1	2	-3.0	-30%	0	-6%	1
O=C(c1ccccc1F)N1CCN(c2ccc([N+](=O)[O-])c(NCC3CCCO3)c2)CC1 (stereo not given)	-3	-7.0	?	-4	-22%	.

2 compounds drawn at random from the list so far:
SMILES	D2 potentiator	D2 ag	gsp ag	Six1-Eya2 inh	gsp antag	CtBP-E1A inh
COC(=O)Cc1ccc2oc(-c3cccnc3)nc2c1	3	-4.6	-1%[15.4 µM]	4	13%	-12
O=C1NCC(O)=C1C=NCCCO	-3	0.9	-37%[inhibitor]	6	9%	14

Remaining list, next part:
SMILES	D2 potentiator	D2 ag	gsp ag	Six1-Eya2 inh	gsp antag	CtBP-E1A inh
Cn1c(SCc2ccc(Br)cc2)nnc1-c1cccs1	5	-1.0	27%	-2	-19%	-7
OCCC#Cc1ccc(CN2CCN(CCc3ccccc3)C(CCO)C2)cc1 (stereo not given)	-20	3.6	-17%	6	9%	-8
Cc1ccc2cc(C(c3nnnn3C3CCCC3)N3CCN(c4ccc(F)cc4)CC3)c(=O)[nH]c2c1 (stereo not given)	-15	-0.7	6%	-4	6%	2
COc1ccc(CN2C(=O)C(CC(=O)NC(c3ccccc3)c3ccccc3)CC(C(=O)N(C)C)=C2C)cc1 (stereo not given)	-3	-4.9	13%	-1	.	-2
CC(=O)NC(C)c1ccc(C(=O)CSc2nnc(C3CC3)n2C2CC2)cc1 (stereo not given)	-1	2.6	-9%	3	15%	-5
O=C(CS(=O)(=O)c1ccccc1)Nc1nnc(C(F)(F)F)s1	6	2.7	-4%[15.4 µM]	-2	-6%	4
